Mtb bLac sens: beta-lactam sensitization of Mtb H37Rv, H37Rv. M. tuberculosis H37Rv growth with meropenem, percent inhibition; hits of this screen are not shown here. inhibition, % at 25 µM. 330,000 tested, 0.27% active;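 active means about 74% or more and at least 40 points above the plate without the antibiotic, then above 30% in a dose series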;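 further: growth measured after seven days incubation then overnight dye step; 0% = bacteria only wells and 100% = bacteria with antibiotic; twin plates without the antibiotic show which effects depend on it; some results filed as inactive read as strong as hits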
YopH PTP inh: YopH tyrosine phosphatase inhibitors, primary screen, biochemical, fluorescence Ex485/Em525. YopH tyrosine phosphatase [Yersinia enterocolitica]. 140,000 tested, 0.16% active. inhibition, %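 (about 10 µM by stock and volumes)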. AID 898, 2007;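 active means inhibition of 50% or more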;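 further: controls were vehicle for no effect and minimum signal wells for full effect; inactives centre near -20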
Mtb growth: M. tuberculosis H37Rv growth inhibitors, H37Rv strain (AID 1626). M. tuberculosis H37Rv growth inhibition; higher % means a stronger effect. one-dose inhibition, % at 10 µM; IC50 in µM for titrated hits. 220,000 tested, 0.95% active;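 active means confirmed in a dose series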;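 further: bacteria incubated seven days before Alamar blue readout; 0% = bacteria only wells and 100% = bacteria with antibiotic wells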
RecA splice inh: Mtb RecA intein splicing inhibitors, primary screen, biochemical, fluorescence, HTS. AID 2221, 2009. 290,000 tested, 0.75% active. Protein RecA (Mycobacterium tuberculosis (strain ATCC 25618 / H37Rv)), P9WHJ3. cell-free RecA intein splicing. inhibition, %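 (about 9 µM by stock and volumes)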; in the data active means inhibition above about 30%;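 further: 0% = vehicle wells and 100% = reference inhibitor control wells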
Target sequence (P9WHJ3 whole entry, looked up, canonical isoform): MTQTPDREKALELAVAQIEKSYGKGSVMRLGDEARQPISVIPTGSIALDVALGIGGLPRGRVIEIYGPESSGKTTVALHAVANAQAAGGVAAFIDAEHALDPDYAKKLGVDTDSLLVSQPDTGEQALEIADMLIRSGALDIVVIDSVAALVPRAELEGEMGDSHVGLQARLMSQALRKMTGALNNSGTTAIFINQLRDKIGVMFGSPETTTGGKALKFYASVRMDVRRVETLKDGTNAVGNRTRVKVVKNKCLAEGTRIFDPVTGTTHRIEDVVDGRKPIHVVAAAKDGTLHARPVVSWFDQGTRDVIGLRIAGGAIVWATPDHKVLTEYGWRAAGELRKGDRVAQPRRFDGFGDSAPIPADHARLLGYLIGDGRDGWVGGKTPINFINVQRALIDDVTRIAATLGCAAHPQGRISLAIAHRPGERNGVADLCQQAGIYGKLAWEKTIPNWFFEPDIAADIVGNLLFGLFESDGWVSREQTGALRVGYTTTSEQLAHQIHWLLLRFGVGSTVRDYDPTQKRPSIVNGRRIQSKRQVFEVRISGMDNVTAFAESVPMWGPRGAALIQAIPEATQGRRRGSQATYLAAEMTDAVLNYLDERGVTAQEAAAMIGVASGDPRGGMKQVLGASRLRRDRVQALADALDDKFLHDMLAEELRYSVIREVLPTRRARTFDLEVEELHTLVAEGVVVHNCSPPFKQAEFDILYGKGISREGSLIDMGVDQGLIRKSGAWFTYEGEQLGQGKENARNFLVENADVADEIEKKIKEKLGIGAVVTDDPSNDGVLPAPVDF
Arbovirus anti: antivirals against arbovirus infection, primary screen, cell-based, full library, 10K replicate subset. 200,000 tested, 0.37% active. arbovirus infection cell-based antiviral screen. AID 1251, 2008. inhibition, % at 10 µM;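 active means inhibition from about 30%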;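 further: bluetongue infection of BSR cells; cell survival read as ATP light after 72 h; 0% = infected wells without compound and 100% = uninfected wells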
Arbovirus anti repeat: also measured in Arbovirus anti; calls as there; inhibition, %; measured here: 10K subset replicate screen; many hits read low in the repeat;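 first of two repeat runs on a subset; 0% = infected and 100% = uninfected wells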
Starred values were filed as active, the others as inactive; / = not tested or not shown.

SMILES | Mtb bLac sens | YopH PTP inh | Mtb growth | RecA splice inh | Arbovirus anti | others
COc1cccc(OCCSc2nc(N)cc(N)n2)c1 | 2.4 | -30.1 | 5.4% | -4.1 | 25.1
Cn1c(SCC(=O)Nc2nc(C(C)(C)C)cs2)nnc1C1CC1 | -9.7 | / | 4.3% | 12.6 | 14.1
O=C(CC1(CC2=NS(=O)(=O)c3ccccc3N2)CCCC1)NCCc1ccccc1 | -10.8 | / | / | 3.4 | /
CCC(CO)NCC(O)COCc1ccc2c(c1)OCO2 (stereo not given) | -3.8 | / | 1.2% | -0.9 | 7.5
N#Cc1cc2ccccc2nc1SCc1cccnc1 | 21.3 | -48.5 | 1.3% | 3.3 | -6.5
COc1ccccc1CCNC1CCCC(C)C1 (stereo not given) | -4.7 | -16.3 | 4.7% | -2.0 | -2.7
COc1cc(/C=C2\S/C(=N/S(=O)(=O)c3ccccc3)NC2=O)c([N+](=O)[O-])cc1OC | 1.6 | -37.4 | -3.5% | -6.3 | 2.1
NS(=O)(=O)c1ccc(CCNC(=O)CNCCc2ccccc2)cc1 | -5.2 | / | / | -0.6 | /
O=C(O)c1cc(NC(=O)C2CCCO2)cc(NC(=O)C2CCCO2)c1 (stereo not given) | 3.1 | -4.4 | -1.6% | -1.6 | 1.2
O=C(Nc1ccccc1C(=O)O)c1cccc(NC(=O)c2ccccc2Cl)c1 | 4.3 | / | / | -0.8 | /
Cc1ccc(C2N(c3ccccn3)C(=O)C3CCCN32)o1 (stereo not given) | -0.5 | / | 1.4% | -0.3 | -3.4
CCOC(=O)Cc1csc(NC(=O)c2c(-c3ccccc3)noc2C)n1 | -2.8 | -41.1 | -3.1% | 0.9 | -3.7 | Arbovirus anti repeat=2.1
O=S(=O)(NC1CC2CCC1C2)c1ccc2c(c1)OCCO2 (stereo not given) | -5.3 | -21.0 | -10.8% | -2.0 | 6.9
CC(C)CNC(=O)CSc1nnc2ccccn12 | -5.8 | / | 41.6% | -3.8 | 8.5
Cc1cc(Br)ccc1NC(=O)CN(C)C(=O)COc1cccc2c1OC(C)(C)C2 | -5.4 | / | / | -0.4 | /
O=C(O)CC/C(=N/NC(=O)c1cn(-c2ccccc2)nc1-c1ccccc1)C(=O)O | 1.1 | -22.6 | -6.3% | 3.1 | -19.5
CCOC(=O)CC1=NN(c2ccccc2)C(=O)/C1=C\c1ccc(OC)cc1OC | 1.9 | -23.4 | 1.4% | 47.5* | -1.1
O=C(NCc1cccs1)c1cc(-c2ccc(O)cc2)on1 | 5.1 | / | / | 0.4 | /
CS(=O)(=O)N1CCN(C(=O)Cc2ccccc2)CC1 | -6.7 | -51.4 | -3.5% | 1.4 | 5.2
CCCSc1nnc(Cn2c(=O)sc3ccccc32)n1C | 2.0 | -19.2 | 3.5% | -0.1 | 11.3 | Arbovirus anti repeat=1.1
O=C1C2CC=CCC2C(=O)N1n1cnnc1 (stereo not given) | -3.8 | / | 2.5% | 4.0 | -2.1
COc1cccc(CN2CCC(C(=O)Nc3ccc(-c4cccc(C)c4)cc3)CC2)c1O | 50.1 | / | / | 9.3 | /
O=C(CNS(=O)(=O)c1ccc(Br)s1)N1CCCC1 | 3.0 | -11.6 | 4.0% | -1.4 | 2.2
Nn1c(Cc2ccc(Br)cc2)n[nH]c1=S | 2.0 | / | -2.6% | 2.9 | 5.6
Cc1ccc(NC(=O)CCC(=O)OCCCC(F)(F)C(F)(F)F)cc1 | -1.7 | -27.4 | -2.4% | -1.0 | -5.9

Reprinted at random: 2 compounds from above, in no set order.
SMILES | Mtb bLac sens | YopH PTP inh | Mtb growth | RecA splice inh | Arbovirus anti | others
O=C(CNS(=O)(=O)c1ccc(Br)s1)N1CCCC1 | 3.0 | -11.6 | 4.0% | -1.4 | 2.2
CCC(CO)NCC(O)COCc1ccc2c(c1)OCO2 (stereo not given) | -3.8 | / | 1.2% | -0.9 | 7.5

Arranged by SMILES length (largest number first): part of the list above
SMILES | Mtb bLac sens | YopH PTP inh | Mtb growth | RecA splice inh | Arbovirus anti | others
COc1cc(/C=C2\S/C(=N/S(=O)(=O)c3ccccc3)NC2=O)c([N+](=O)[O-])cc1OC | 1.6 | -37.4 | -3.5% | -6.3 | 2.1
COc1cccc(CN2CCC(C(=O)Nc3ccc(-c4cccc(C)c4)cc3)CC2)c1O | 50.1 | / | / | 9.3 | /
O=C(CC1(CC2=NS(=O)(=O)c3ccccc3N2)CCCC1)NCCc1ccccc1 | -10.8 | / | / | 3.4 | /
O=C(CNS(=O)(=O)c1ccc(Br)s1)N1CCCC1 | 3.0 | -11.6 | 4.0% | -1.4 | 2.2
N#Cc1cc2ccccc2nc1SCc1cccnc1 | 21.3 | -48.5 | 1.3% | 3.3 | -6.5

Reprinted from the entries so far, 2 compounds:
SMILES | Mtb bLac sens | YopH PTP inh | Mtb growth | RecA splice inh | Arbovirus anti | others
Nn1c(Cc2ccc(Br)cc2)n[nH]c1=S | 2.0 | / | -2.6% | 2.9 | 5.6
Cc1ccc(NC(=O)CCC(=O)OCCCC(F)(F)C(F)(F)F)cc1 | -1.7 | -27.4 | -2.4% | -1.0 | -5.9

New compounds follow
SMILES | Mtb bLac sens | YopH PTP inh | Mtb growth | RecA splice inh | Arbovirus anti | others
C=CCn1c(CCNC(=O)c2ccccc2F)nnc1SCc1nc2ccccc2c(=O)[nH]1 | 2.1 | -15.7 | -3.0% | -3.7 | -1.3
CCCC(=O)N(Cc1cc(=O)[nH]c2ccccc12)c1ccccc1OC | -2.7 | / | / | 11.0 | /
O=C(Cn1cc(S(=O)(=O)Cc2cccc([N+](=O)[O-])c2)c2ccccc21)N1CCOCC1 | -4.7 | / | / | 0.0 | /
O=C(COc1cc(F)ccc1[N+](=O)[O-])Nc1ccc(N2CCCCC2)cc1 | -14.2 | / | / | 0.1 | /
Cc1cc(C)c(S(=O)(=O)Nc2ccc3c(c2)CCC3)c(C)c1 | 2.6 | -9.5 | 8.4% | 12.4 | -35.8
Cc1ccc2nsnc2c1N(S(C)(=O)=O)S(C)(=O)=O | 4.3 | -10.8 | 1.4% | 12.7 | -1.4
COCCN(Cc1cc2cc3c(cc2nc1Cl)OCO3)C(=O)c1cccc(C)c1 | 2.1 | / | -4.1% | 2.3 | /
Cn1cc(CCC(=O)N2CCCC(Nc3ccc(F)cc3)C2)cn1 (stereo not given) | -4.0 | / | / | 1.6 | /
CC(C)(C)n1ncc2c(=O)n(CC(=O)Nc3ccc4c(c3)OCCO4)cnc21 | -7.3 | -36.4 | 3.1% | 1.9 | 5.2
CCCCCOc1ccc(Cn2ccnc2)cc1[N+](=O)[O-] | 19.0 | -20.2 | 9.8% | 2.7 | 1.5
O=C(Nc1cccc(C(F)(F)F)c1)C1CCCN(c2ncccn2)C1 (stereo not given) | 3.4 | -13.4 | 13.7% | 2.4 | 9.3
COc1ccc(C(=O)Nc2ccccc2[N+](=O)[O-])cc1S(=O)(=O)N1CCOCC1 | -0.2 | / | / | -3.4 | /
Cc1ccc(/C=C2\SC(=S)N(CCC(=O)NNS(=O)(=O)c3ccccc3)C2=O)cc1 | 3.2 | / | 1.0% | 2.3 | /
Cc1ccn2c(=O)nc(SCC(=O)Nc3cccc4ccccc34)nc2c1 | -4.4 | / | / | 7.0 | /
CCC(C)NC(=O)c1cn(C)c(=O)c2cc(OC)c(OC)cc12 (stereo not given) | -3.3 | -27.4 | -10.6% | 3.0 | 0.7 | Arbovirus anti repeat=1.0
COc1ccc(C(=O)N/N=C/c2ccc(SC)cc2)cc1 | -1.7 | -36.5 | 1.8% | -0.9 | -5.9
COc1ccc(Nc2nnc(SCC(=O)c3cc(C)n(CC4CCCO4)c3C)s2)cc1 (stereo not given) | -3.4 | -24.2 | 7.0% | / | 13.9
COc1ccc(-c2csc(N(C)C(=O)c3ccco3)n2)cc1 | 0.5 | / | / | 1.1 | /
CC(=O)c1cccc(N(CC(=O)NC2CCCCC2)C(=O)c2csnn2)c1 | 3.5 | / | / | 0.1 | /
C/C(=N\NS(=O)(=O)c1ccc(Cl)c([N+](=O)[O-])c1)c1ccc(C)o1 | -7.7 | -28.4 | -6.9% | / | 9.8
Cc1nc2ccccc2c2oc(C(=O)NCCCN3CCCC3=O)cc12 | 3.5 | -28.6 | 3.9% | 2.4 | 10.9 | Arbovirus anti repeat=0.9
CCN(CC)CCNc1ncnc2c1sc1nc(N3CCOCC3)c3c(c12)CCCC3 | 38.3 | / | 7.9% | 0.5 | /
CCOCCCNC(=O)c1ccc(NC(C)=O)cc1 | -0.8 | -22.2 | -8.0% | 1.0 | 6.8
Cc1cc2ccccc2c(=O)n1CC(=O)Nc1ccc2c(c1)OCCO2 | -6.5 | 23.5 | 3.1% | 2.4 | 11.1
CCOc1ccc(C(=O)Nc2nnc(NC(=S)Nc3ccccc3)s2)cc1 | 20.9 | / | 9.0% | -1.0 | 1.4

The results go on:
SMILES | Mtb bLac sens | YopH PTP inh | Mtb growth | RecA splice inh | Arbovirus anti | others
N#CC1=C(N)Oc2c(ccc3ccccc23)C1c1cccs1 (stereo not given) | 6.9 | -16.3 | 0.5% | 19.5 | 4.2
COc1ccc(-c2cc(C#N)nc(N3CCN(c4ccccc4)CC3)n2)cc1 | 0.5 | -19.9 | 6.8% | 4.1 | 0.7
C#Cc1ccc([C@H]2C=C(C(=O)N3CCOCC3)O[C@@H](OCC)[C@@H]2CCCO)cc1 | -4.7 | / | -8.3% | -0.6 | 2.1
CN(C(=O)C12CC3CC(CC(C3)C1)C2)C1CCS(=O)(=O)C1 (stereo not given) | -3.3 | -33.0 | 1.3% | -2.4 | -21.1
COc1ccc2cc(CN(CC3COCCO3)S(=O)(=O)c3ccccc3)c(=O)[nH]c2c1 (stereo not given) | / | -42.5 | 2.4% | 1.7 | -2.1
Cc1oc(-c2cccc(Br)c2)[n+]([O-])c1C | -3.1 | / | -0.4% | -3.4 | 4.2
O=S(=O)(CCCc1ccccc1)c1ncn[nH]1 | 1.9 | -61.5 | 54.7% | -1.3 | 8.4
CCC1=C/C(=C\c2ccc3c(c2)OCO3)C(=O)S1 | 8.2 | -49.7 | 1.7% | / | 0.3
CC(C)CN(CC(C)C)C(=O)CN1c2cccc3cccc(c23)S1(=O)=O | 7.6 | / | / | 6.2 | /
COc1ccc(N(C)S(=O)(=O)c2cccc(C(=O)OCC(=O)NCc3ccccc3OC)c2)cc1 | 6.5 | / | -3.0% | 7.5 | /
COc1ccc(OC)c(S(=O)(=O)N2CCCC(C(=O)NCc3cccnc3)C2)c1 (stereo not given) | -6.0 | / | / | 0.0 | /
CCOC(=O)N1CCN(CC(=O)Nc2cc(OC)c(OC)cc2C#N)CC1 | -10.2 | / | 0.6% | -0.4 | 3.9
CC(C)(C)c1ccc(C(=O)N/N=C2\C3CN4CCN(C3)CC2(c2ccccc2)C4)cc1 | -4.3 | -27.0 | 3.6% | 1.0 | -7.6
CC(=O)N1CCOc2ccc(S(=O)(=O)NCCc3cccc(C)c3)cc21 | -2.8 | / | / | 0.2 | /
O=C(NNC(=O)C1CC1)c1cccc([N+](=O)[O-])c1 | -2.9 | / | / | -1.6 | /
O=C(NN1C(=O)C2C(C1=O)C1C=CC2C12CC2)c1ccccc1Cl (stereo not given) | -11.3 | / | 9.6% | -1.3 | /
NC(=O)c1nsc(C(=O)N(Cc2cccnc2)C(C(=O)NCc2ccc(F)cc2)c2ccc(O)cc2)c1N (stereo not given) | 1.1 | / | / | 1.6 | /
COC(=O)c1ccc(NC(=O)C(=O)c2cn(CC(=O)N3CCOCC3)c3ccccc23)cc1 | 0.8 | / | / | -1.2 | /
O=C(COc1ccc(Cl)cc1)Nc1cc2c3c(c1)CC(=O)N3CCC2 | 0.5 | / | / | 12.4 | /
CC1(C)Cc2ccccc2-c2nnc(SCc3ccc(C#N)cc3)n21 | -6.2 | 5.0 | 7.3% | 3.1 | -2.3
COC(=O)c1nn(-c2ccccc2)c(Cl)c1/C=N/OCc1ccc(C)cc1 | -5.3 | -7.7 | 4.5% | 2.6 | 10.1
Cc1cc([N+](=O)[O-])ccc1NC(=O)c1cc2ccccc2o1 | 67.5 | / | / | 0.2 | /
COc1ccc(C(=O)CSc2nnc(CN3CCCCC3)n2-c2ccc(F)cc2)cc1OC | 4.3 | -12.8 | 0.9% | -2.8 | 6.2
Cc1ccc(CN2C(=O)CCC2C(=O)NCc2cccnc2)cc1 (stereo not given) | -9.3 | -9.5 | 5.6% | -1.6 | 8.4
COc1cc(C(=O)OCCCN2CCOCC2)ccc1O | 2.3 | / | -6.2% | -0.8 | 3.6
Nc1ccc(Cl)cc1C(=O)c1ccccc1Cl | -1.8 | -30.7 | 5.4% | 7.4 | -8.5
Cc1nnc(SCC(=O)NC2CCCc3c2cnn3-c2ccccc2F)o1 (stereo not given) | -1.4 | / | / | -0.3 | /
C=CCCC(=O)NC1CCCc2c1cnn2-c1ccccc1F (stereo not given) | -1.9 | / | / | -1.2 | /

Source: PubChem (several laboratories)

A portion of the library; the hit share may differ from the screen's.
